FGF22 binding = FGF22 (human) thermal shift binding; Q9HCT0; recombinant FGF22 thermal shift, SYPRO orange fluorescence; percent of sucrose octasulfate shift, DMSO zero; calls only at 9.99 µM; hit rate 1.5% among 340,000;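 active = melting point raised past a set limit in the mean and every replicate; inconclusive = no clear call; three in four hits are not shown here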
UCH37 DUB inh = blocks the human deubiquitinase UCH37 | Q9Y5K5 | purified proteasome/UCH37, Ub-AMC cleavage fluorescence | inhibition, % (no concentration beside the values) | hit rate 0.33% among 330,000;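 active = mean of two replicates above 20%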;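 also: 0% = compound-free wells with enzyme and 100% = wells lacking proteasome; stock transfer was 100 nL into about 20 µL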
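assay system = human UCH37 enzyme supplied as purified proteasome complex | amount = proteasome at 0.15 nM in the dispensed enzyme solution | schedule = 30 min compound-proteasome preincubation then 25 min substrate reaction, room temperature | measured by = fluorescence, ex 355 nm, em 460 nm | benchmarks = no-proteasome wells (full inhibition) and compound-free wells (no inhibition)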
HNF4A DNA FP = change in binding of human HNF4 alpha to DNA; activity change, % at 10 µM; HNF4a-FITC DNA binding, fluorescence polarization, 1 h; AID 1224865; hit rate 0.3% among 360,000; P41235; in the data active = activity change above about 30%, passing the limit was not always enough;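 also: controls were the assay level and a saturating level of protein; the project sought stronger binding though the title names inhibitors; some compounds called inactive have numbers as strong as hits; positive values seem to mean higher polarization but the record does not say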
Target sequence (P41235 whole entry, looked up): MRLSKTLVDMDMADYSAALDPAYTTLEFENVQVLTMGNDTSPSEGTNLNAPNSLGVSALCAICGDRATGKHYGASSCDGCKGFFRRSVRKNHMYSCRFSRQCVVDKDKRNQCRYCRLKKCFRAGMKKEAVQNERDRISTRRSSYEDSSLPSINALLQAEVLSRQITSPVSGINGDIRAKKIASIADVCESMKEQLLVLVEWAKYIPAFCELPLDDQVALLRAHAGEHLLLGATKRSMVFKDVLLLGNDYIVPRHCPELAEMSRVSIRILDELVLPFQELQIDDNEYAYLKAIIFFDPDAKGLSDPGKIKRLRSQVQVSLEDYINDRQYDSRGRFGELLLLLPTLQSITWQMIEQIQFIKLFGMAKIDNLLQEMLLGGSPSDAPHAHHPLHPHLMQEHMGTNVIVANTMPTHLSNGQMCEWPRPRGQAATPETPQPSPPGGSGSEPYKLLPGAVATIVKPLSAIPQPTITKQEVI
AF4-AF9 inh = blocks AF4 peptide binding to human AF9. P42568. AlphaScreen, biotin-AF4 peptide binding to FLAG-AF9. inhibition, % at 10 µM. hit rate 0.47% among 350,000;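 active = every replicate reaching a set inhibition limit, whatever the replicate mean, cut at about 25% in these data; inconclusive = mean inhibition reaches that limit but some replicates miss it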;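 also: 0% = plate neutral control median and 100% = total signal loss; the record names both 10 and 1 µM as test concentration; the first replicate is given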
Target sequence (P42568 whole entry, looked up): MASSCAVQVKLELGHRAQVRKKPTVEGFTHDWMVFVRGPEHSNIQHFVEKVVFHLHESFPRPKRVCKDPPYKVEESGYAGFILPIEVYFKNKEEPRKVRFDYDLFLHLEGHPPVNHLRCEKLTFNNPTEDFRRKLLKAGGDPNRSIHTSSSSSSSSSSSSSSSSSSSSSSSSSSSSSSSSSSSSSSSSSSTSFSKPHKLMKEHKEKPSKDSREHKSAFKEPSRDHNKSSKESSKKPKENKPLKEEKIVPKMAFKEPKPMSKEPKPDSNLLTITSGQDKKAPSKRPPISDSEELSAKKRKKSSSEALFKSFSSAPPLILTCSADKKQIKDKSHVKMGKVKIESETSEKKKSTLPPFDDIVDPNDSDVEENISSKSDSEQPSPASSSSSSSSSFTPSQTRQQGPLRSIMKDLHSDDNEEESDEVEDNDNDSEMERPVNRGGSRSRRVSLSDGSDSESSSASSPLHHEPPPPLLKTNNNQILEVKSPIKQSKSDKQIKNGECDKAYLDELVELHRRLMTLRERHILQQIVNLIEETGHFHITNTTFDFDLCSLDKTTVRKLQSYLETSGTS
Vif A3G = HIV-1 Vif–A3G interaction blockers – biochemical, TR-FRET, GST-Vif 1-94, biotin-A3G peptide, dose response retest, primary screen (AID 1117319). TR-FRET GST-Vif / biotin-A3G peptide binding; higher % means a stronger effect; test concentration not given here; strong numbers were not always called active. inhibition, %, or IC50 in µM where a hit was titrated. hit rate 0.57% among 260,000;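 active = above the screen mean plus three standard deviations and confirmed in dose response; inconclusive = results disagree or hit not tested in dose response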;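 also: Vif residues 1-94 fused to GST binding biotinylated APOBEC3G peptide 110-148; 0% = full assay without inhibitor and 100% = GST in place of GST-Vif; retest series ran down from 100 µM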
E coli growth = E. coli growth inhibition | OD600 absorbance (test concentration not listed) | Escherichia coli growth, OD600, 23 h; stronger effect = lower value | AID 1053175 | hit rate 0.21% among 330,000;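 active = OD600 absorbance below the run mean of sample wells minus 3.6 SD, in any replicate, cut at about 0.56 in these data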;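 also: stock transfer was 300 nL into about 60 µL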
RanGTP-Impb inh = inhibitors of RanGTP-importin-beta interaction, primary screen, biochemical, FRET, CFP-Ran, YFP-importin-beta, homogeneous; cell-free CFP-Ran/YFP-importin-beta FRET ratio; inhibition, % (test concentration not listed); hit rate 1.1% among 300,000; AID 2216;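 active = most replicates above 15%; inconclusive = exactly half above 15%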;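 also: 0% = DMSO wells and 100% = Ran loaded with GDP instead of GTP; wells of about 40 µL received 100 nL stock; the first replicate is given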
Numbers without * were called inactive; i = inactive; ? = inconclusive; · = not tested or not shown; & = joins results of further samples. This is a subset; rates above refer to the full screens.

no. | structure | HNF4A DNA FP | E coli growth | FGF22 binding | Vif A3G | AF4-AF9 inh | UCH37 DUB inh | RanGTP-Impb inh
1 | CCC(C)N1CCN(S(=O)(=O)Cc2ccccc2)CC1 (centres undefined) | -0.8 | 0.683 | i | · | -0.4 | 0.3 | 4.7
2 | Cc1ccc(OC(C)C(=O)N(C)c2ccccc2)c([N+](=O)[O-])n1 (centres undefined) | 1.8 | 0.695 | i | -1.8% | -2.1 | 2.7 | ·
3 | Cc1nc(-c2ccc(F)cc2)c(CC(=O)N(C)CC(=O)Nc2c(C)cccc2C)s1 | 4.5 | 0.644 | i | 5.5% | -5.6 | -0.4 | ·
4 | CCOC(=O)Cn1c(CCC(=O)O)ccc1-c1ccc(F)cc1 | 4.9 | 0.727 | i | ? | 0.4 | -16.0 | -2.1
5 | Cc1cc(C)c(NC(=O)CSc2nnnn2-c2cccnc2)c(C)c1 | 8.4 | 0.627 | i | · | -16.1 | -2.2 | -2.3
6 | Cc1ccccc1N1CC(C(=O)Nc2nnc(SCCN3CCOCC3)s2)CC1=O (centres undefined) | 5.9 | 0.72 | i | · | -0.3 | 0.3 | -1.3
7 | Fc1ccccc1NC(=S)N(CCN1CCCCCC1)Cc1cccs1 | -0.6 | 0.666 | i | 6.2% | 0.0 | 5.0 | -0.2
8 | CCNc1nc(Oc2ccc(C#N)cc2)cc(C(F)(F)F)n1 | -1.4 | 0.65 | i | -0.1% | -2.1 | -3.1 | 1.0
9 | OCc1ccccc1CNCc1ccccc1 | -0.4 | 0.704 | i | -0.5% | -2.1 | -0.1 | ?
10 | CN(C)S(=O)(=O)c1ccc(Cl)c(NC(=O)CN2CCC(Cc3ccccc3)CC2)c1 | -1.3 | 0.644 | i | -2.3% | -3.2 | 4.8 | 5.8
11 | NC(=O)C(F)(F)C12OC3C4C5CC(C6C5C3C61)C42 (centres undefined) | 3.3 | 0.712 | i | 24.3% | -29.4 | 0.3 | 2.8
12 | NC(=O)COc1ccc(/C=N\NC(=O)CC(=O)NCCc2ccccc2)cc1 | 1.5 | · | i | -4.9% | -0.4 | · | -2.4
13 | OC1COCOC1C(O)C1OCOCC1O (centres undefined) | 3.0 | 0.7 | i | -1.3% | 2.2 | 4.1 | ·
14 | C#CCN(C[C@@H]1[C@@H](OC(=O)NCc2ccco2)[C@@H](OC(=O)NCc2ccco2)Cn2c(=O)ccc(=O)n21)S(=O)(=O)c1ccc(C)cc1 | -1.0 | · | i | -1.7% | -1.2 | · | ·
15 | O=C(/C=C/c1ccc2c(c1)OCO2)N1CCN(c2n[nH]c(=O)[nH]c2=O)CC1 | -3.3 | 0.636 | i | 4.1% | -4.5 | -5.3 | 2.5
16 | CCc1ccc(CN(C(=O)COc2c(C)cccc2C)C2CCS(=O)(=O)C2)cc1 (centres undefined) | -4.1 | 0.637 | i | · | -3.4 | -0.2 | 2.2
17 | CC1(C)CC(=O)C(C=NCCN2CCN(C(=O)CCl)CC2)=C(O)C1 | 4.0 | 0.638 | i | -2.1% | 6.0 | 2.3 | 5.4
18 | COCc1cc(C)nc2sc(C(=O)Nc3ccccc3OC)c(N)c12 | 4.4 | 0.684 | i | · | -1.7 | -95.5 | 3.3
19 | CC1CCc2nc(N)c(C#N)c(-c3cccnc3)c2C1 (centres undefined) | 0.3 | 0.707 | i | ? | -3.9 | -39.9 | 8.0
20 | CCc1nc(N2CCN(C(=O)c3ccco3)CC2)c2c3c(sc2n1)CCCC3 | 4.3 | 0.708 | · | -1.1% | · | -10.2 | 0.3
21 | Cc1cnc(C(=O)N2CCN(S(=O)(=O)c3cccc(Br)c3)CC2)cn1 | -1.5 | 0.679 | · | 4.4% | 2.0 | 0.5 | ·
22 | Cn1c(=O)cc(N2CCOCC2)[nH]c1=O | 0.7 | 0.751 | i | · | 9.0 | 2.3 | 3.7
23 | CC1CCCCC12NC(=O)N(CC(=O)NCc1cccs1)C2=O (centres undefined) | 1.1 | · | i | -5.4% | 1.9 | · | ·
24 | CC(NC(=O)CCl)c1ccc(Cl)c(Cl)c1 (centres undefined) | 0.5 | · | · | 1.6% | · | · | -1.7
25 | C[C@H](CO)N1C[C@H](C)[C@@H](CN(C)Cc2ccc(C(=O)O)cc2)OCc2cnnn2CCCC1=O | 2.2 | · | i | -0.7% | 2.2&-2.4 | · | ·
26 | Cc1cc(NC(=O)CN2CCN(C)CC2)no1 | -0.7 | 0.697 | i | · | -2.0 | 2.8 | -2.7
27 | O=C(O)c1ccc(N2C(=O)c3[nH]nc(-c4ccccc4)c3C2c2ccccc2)cc1 (centres undefined) | -2.5 | 0.664 | i | -6.4% | -1.9 | 4.4 | -2.1
28 | O=C(/C=C/c1ccccc1)Nc1ccc(N2CCCCC2)cc1 | -5.1 | 0.701 | i | 1.9% | 6.8 | 1.6 | 6.1
29 | O=C(CCNC(=O)c1ccccc1)Nc1ccc(S(=O)(=O)Nc2ncccn2)cc1 | 0.2 | 0.679 | i | -7.3% | -0.3 | 3.4 | ·
30 | COc1ccc(Oc2nc(C(F)(F)F)nc3ccccc23)cc1 | 0.1 | 0.716 | · | ? | · | 0.4 | 0.9
31 | CCCCNC(=O)CNC(=O)c1nn(-c2ccc(OC)cc2OC)c(=O)c2ccccc12 | 1.5 | 0.686 | i | -11.2% | 0.2 | 1.7 | 5.3
32 | CCOC(=O)CN1C(=O)C(O)(CC(=O)c2ccc3c(c2)CCCC3)c2ccccc21 (centres undefined) | 0.1 | 0.714 | · | · | · | 5.2 | 1.7
33 | CCCCCOC(=O)CSc1nnc(-c2ccccc2)c(=O)[nH]1 | -1.1 | 0.702 | · | -2.4% | · | 0.3 | 4.4
34 | CCOc1ccc(NC(=O)c2c3c(nc4ccccc24)CCC3)cc1 | 0.7 | 0.703 | i | 3.0% | 0.0 | 5.8 | -2.6
35 | CCCN1C(=O)C(Cc2nc3ccccc3c(=O)n2-c2ccccc2)c2cc(C)ccc21 (centres undefined) | 3.5 | 0.694 | i | -5.3% | -3.8 | 2.4 | ?
36 | COC(=O)Cn1c(CN2CCOCC2)nc2c1c(=O)[nH]c(=O)n2C | 1.3 | 0.731 | i | 0.9% | 2.4 | 3.5 | -2.6
37 | CN1CCN(C(=O)c2ccc(CNS(=O)(=O)c3cccc(Cl)c3)cc2)CC1 | -4.5 | 0.712 | i | · | -2.1 | 1.4 | -0.1
38 | NS(=O)(=O)c1ccc(NC(=O)C2Cc3ccccc3C(=O)O2)cc1 (centres undefined) | 2.7 | 0.732 | i | · | -4.1 | 2.0 | 1.9
39 | O=C(c1oc2ccccc2c1N1CCCCC1)N1CCCCC1 | -0.2 | 0.673 | · | ? | · | 2.2 | -1.1
40 | O=C(O)C(c1ccccc1)N1C(=O)/C(=C\c2ccc(-c3ccc(Br)cc3)o2)SC1=S (centres undefined) | 109.6 | · | i | 6.6% | 4.3 | · | -106.4
41 | O=c1[nH]c2ccccc2nc1NCCN1CCOCC1 | 2.3 | 0.755 | · | -4.3% | · | -3.0 | 0.4
42 | O=C(CSc1nnnn1C1CCCCC1)N1c2ccccc2Sc2ccccc21 | -2.0 | 0.733 | · | -1.0% | · | 4.2 | -0.8
43 | O=C(CCC(=O)Nc1nnc(C2CCCCC2)s1)Nc1ccccc1 | -1.0 | 0.664 | i | 5.7% | -8.1 | 3.4 | -2.1
44 | COCCSc1ccccc1C(=O)N1CCC(Cc2ccccc2)CC1 | -3.4 | 0.678 | i | -7.0% | -1.6 | 2.9 | 1.5
45 | N#CC1CCN(C(=O)c2ccc3c(Cl)c4c(nc3c2)CCCC4)CC1 | 3.0 | 0.714 | i | 2.8% | -0.3 | 5.8 | 6.4
46 | CC(=O)N[C@@H](Cc1c[nH]c2ccccc12)C(=O)OCc1cc(C(F)(F)F)cc(C(F)(F)F)c1 | -4.9 | · | i | · | -0.2 | 1.3 | ·
47 | O=C(N/N=C\C1CC=CCC1)c1ccc(Br)o1 (centres undefined) | -0.4 | · | i | 1.1% | 0.8 | · | 0.6
48 | Cn1ncc2c(Nc3ccccc3Cl)nc(Nc3ccccc3Cl)nc21 | 3.4 | 0.675 | i | · | -4.3 | -8.0 | -1.7
49 | O=C(Nc1ccccc1O)c1ccc2c(c1)C(=O)N(Cc1ccco1)C2=O | -7.6 | 0.651 | i | · | 0.7 | 2.5 | ·
50 | COc1ccccc1NC(=O)N1CCN(Cc2ccc3c(c2)OCO3)CC1 | -1.5 | 0.674 | i | -6.9% | 1.7 | 0.7 | 5.0

Additional structures follow.
no. | structure | HNF4A DNA FP | E coli growth | FGF22 binding | Vif A3G | AF4-AF9 inh | UCH37 DUB inh | RanGTP-Impb inh
51 | Cc1cccc(NC(=O)CS(=O)(=O)c2c[nH]c3ccccc23)c1C | 1.3 | 0.675 | · | -1.4% | · | -1.7 | -3.1
52 | CC1CN(CCCCOc2ccc(C(C)C)cc2)CC(C)O1 (centres undefined) | 3.2 | 0.637 | · | 4.1% | · | 2.1 | -0.1
53 | CCn1c(=O)c(CCC(=O)N2CCOCC2)c(C)c2c(C)nn(-c3ccccc3)c21 | 0.1 | 0.693 | · | -3.8% | · | -0.2 | 1.2
54 | Cc1cc(Br)cn2c(Cc3ccsc3)c(-c3cccc(Br)c3)nc12 | 8.5 | · | i | · | 1.0 | · | ·
55 | C=C(C)C(=O)OCC(=O)NCc1ccccc1 | 1.8 | 0.65 | · | -3.5% | -1.7 | 1.5 | -3.1
56 | COc1ccccc1CNC(=O)CN(C)S(=O)(=O)c1ccc2c(c1)n(C)c(=O)c(=O)n2C | 3.5 | 0.701 | i | -6.0% | 0.7 | -0.5 | -2.4
57 | COc1ccc(CNC(=O)C(C)OC(=O)c2cccc(N(C)C)c2)cc1 (centres undefined) | -2.1 | 0.665 | i | · | -1.0 | -14.7 | ·
58 | S=C(NCCCN1CCOCC1)N1CCN(c2nc(-c3ccc(Cl)cc3)cs2)CC1 | 2.3 | 0.607 | i | -3.5% | 33.1* | 4.1 | 1.5
59 | CC1(C)CC(=O)c2cn3nc(C(F)(F)F)nc3nc2C1 | -1.4 | 0.71 | · | -2.9% | · | 5.4 | 0.7
60 | Cc1ccc(CSC2=CS(=O)(=O)c3ccccc3N2)cc1 | 1.0 | 0.749 | · | -4.4% | · | 4.4 | 2.0
61 | Cc1ccc(-c2csc(NC(=O)c3ccc4c(=O)n5c(nc4c3)CCCCC5)n2)cc1 | -1.5 | 0.746 | i | 11.9% | 2.3 | -80.0 | 1.7
62 | CC(C)(C)c1ccc(CC(=O)N2CCC2(C)C(=O)NS(=O)(=O)c2ccccc2C(F)(F)F)cc1 (centres undefined) | -0.7 | · | i | · | -2.1 | · | ·
63 | CC1=C(C(=O)OCc2ccc3c(c2)OCO3)C(c2ccccc2)NC(=O)N1 (centres undefined) | 0.4 | 0.669 | · | 2.5% | · | 4.9 | -0.5
64 | Cc1cc(C(=O)Nc2cc(C(F)(F)F)ccc2N2CCOCC2)no1 | 9.9 | 0.705 | i | · | -1.4 | 3.2 | -1.6
65 | Cc1csc(NC(=O)c2cc3ccccc3o2)n1 | 2.5 | 0.594 | i | 0.6% | -9.0 | 2.4 | ·
66 | O=C(NCc1ccccn1)Nc1ccc(F)cc1 | 0.1 | 0.695 | · | 11.6% | · | 1.6 | ?
67 | COc1ccc(/C=C2\Oc3cc(OCC(=O)N4CCC(C(=O)O)CC4)ccc3C2=O)c(OC)c1OC | 4.0 | 0.706 | i | · | 0.6 | 14.7 | 3.9
68 | OCCC1CN(Cc2cnc(-c3ccccc3)s2)CCN1Cc1ccccc1 (centres undefined) | -2.9 | 0.671 | i | -8.3% | 2.2 | 1.2 | -3.9
